# N370S GC – inhibits or activates N370S mutant glucocerebrosidase | actives 0.092% (n = 330,000) | Potency, µM (series often up to 59.4 µM), for the others: at the top dose activity change, negative = inhibition, hits mostly inhibitors | N370S GC spleen homogenate, 4MU-glucoside fluorescence | P04062;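 also: 0% = full enzyme activity and -100% = no enzyme basal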
# TDP1 block – blocks human tyrosyl-DNA phosphodiesterase 1. actives 0.28% (n = 350,000). Potency, µM (doses to about 130 µM), for the others: at the top dose activity change, negative = inhibition, usual class: inhibitors. recombinant TDP1, AlphaScreen DNA substrate cleavage; also: nearly all actives have a fitted effect of over 40% in size
# Target sequence (Q9NUW8 whole entry, looked up): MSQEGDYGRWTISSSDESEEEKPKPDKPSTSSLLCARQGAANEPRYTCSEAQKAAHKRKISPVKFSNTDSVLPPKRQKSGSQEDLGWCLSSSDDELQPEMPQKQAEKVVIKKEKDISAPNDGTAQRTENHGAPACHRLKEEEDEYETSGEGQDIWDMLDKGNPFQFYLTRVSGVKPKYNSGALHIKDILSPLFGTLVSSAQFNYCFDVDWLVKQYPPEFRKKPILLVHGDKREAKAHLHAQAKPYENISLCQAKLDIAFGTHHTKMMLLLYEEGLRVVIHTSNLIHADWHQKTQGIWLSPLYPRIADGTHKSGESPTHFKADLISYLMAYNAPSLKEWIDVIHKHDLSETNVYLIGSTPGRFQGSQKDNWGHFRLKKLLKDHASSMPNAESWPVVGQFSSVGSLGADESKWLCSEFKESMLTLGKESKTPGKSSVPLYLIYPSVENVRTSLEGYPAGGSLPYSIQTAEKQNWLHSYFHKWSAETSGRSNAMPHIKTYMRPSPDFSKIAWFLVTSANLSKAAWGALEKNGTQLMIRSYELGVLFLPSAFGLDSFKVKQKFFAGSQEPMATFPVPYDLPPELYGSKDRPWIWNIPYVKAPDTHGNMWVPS
#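 E. coli-derived human Tdp1, 1 nM final. Cpd preinc 15 min RT; substrate 15 nM final, 5 min RT; AS bead mix 10 ug/ml final, 10 min RT. Signal loss = tyrosine-FITC cleavage. No-enzyme wells = max signal.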
# Starred values were filed as active, the others as inactive; ? = inconclusive; . = no result given; & = joins results of further samples; [ ] = dose if it differs, or a comment. Calls follow the shape of the dose curve; as a rule, active = well fitted curve in the direction sought with a large enough effect; inconclusive = small, poorly fitted or top-dose-only effect, or another doubt; inactive = no such curve, though single readings can be large; an effect the other way counts as inactive or inconclusive. Unless noted, % is scaled to controls: 0 for no effect and ±100 for the full control effect; potency is read from the fitted curve at half-maximal effect. The list is partial; most or all hits stand in other tables.
# Order of results – N370S GC	TDP1 block
- COC(=O)CNC(=O)c1cccc(F)c1
  6%	-1%
- Cc1ccccc1C(=O)Nc1cc(NC(=O)c2ccccc2C)cc(C(=O)O)c1
  1%	2%
- CCC(=O)N(CC)Cc1cc(=O)[nH]c2ccccc12
  -7%	4%
- CCN(CC)C(=O)c1ccc(O)c(OC)c1
  -19%	5%
- CCN1C(=NCCOC)N[C@@H](CCc2ccccc2)[C@H](C(=O)OC)[C@H]1C
  2%&-17%	.
- COc1cccc(NC(=O)c2nn(C)c(C(=O)Nc3cccc(OC)c3)c2[N+](=O)[O-])c1
  3%	4%
- CCN(CC)c1ccc(N2C(=O)CSC2=S)cc1
  -1%	3%
- COc1ccc(CC2(CO)CCN(Cc3cnn(C)c3)CC2)cc1
  6%	9%
- COc1cc(C(=S)N2CCOCC2)ccc1OS(=O)(=O)c1ccc(NC(C)=O)cc1
  6%	0%
- O=C(c1ccc([N+](=O)[O-])cc1)N1CCSC1c1ccccc1 (centres undefined)
  -4%	3%
- COc1ccc(/C=C/C(=O)Nc2cccc(S(=O)(=O)N3CCOCC3)c2)cc1OC
  -17%	9%
- COCCSc1ccccc1C(=O)Nc1ccc(Br)cc1
  ?	0%
- COCCCN(C)C1CCN(C(=O)Nc2ccc(F)cc2)CC1
  -21%	1%
- Cc1ccnn1-c1ccc(C(=O)N2CCCN(S(=O)(=O)c3ccc(F)cc3)CC2)cc1
  .	1%
- C=CCOn1c(=O)c(-c2ccc(Br)cc2)[n+]([O-])c2ccccc21
  -4%	.

# Order of results – N370S GC	TDP1 block
- Cn1c(C(=O)OC(C(=O)NC2CCCC2)c2ccncc2)cc2sccc21 (centres undefined)
  ?	0%
- O=C(Nc1cc(S(=O)(=O)N2CCOCC2)ccc1Cl)C1CCC1
  1%	0%
- O=C(CCNC(=O)C1CCN(S(=O)(=O)c2ccc(F)cc2)CC1)Nc1nccs1
  -6%	1%
- CN(CC(=O)Nc1ccc(OC(F)(F)F)cc1)C(=O)Cn1c(=O)cnc2ccccc21
  .	-13%
- COc1ccc(-c2onc3ccc(C(=O)/C=C/N(C)C)cc23)cc1
  11%	.
- CC1Oc2ccccc2N(CC(=O)NC2CCCCC2)C1=O (centres undefined)
  -6%	3%
- COc1ccccc1CNC(=O)C(NS(=O)(=O)c1ccc2c(c1)oc(=O)n2C)C(C)C (centres undefined)
  5%	-5%
- Cc1csc(SCC(=O)Nc2ccccc2[N+](=O)[O-])n1
  1%	2%
- COCCCNC(=O)c1c(N)n(-c2ccccc2)c2nc3ccccc3nc12
  ?	-1%
- COc1ccc(-c2[nH]c(-c3cccc(OC)c3)nc2SCC(=O)NCc2ccco2)cc1
  2%	11%
- COc1ccc(NC(=O)CS(=O)CC(=O)NCc2cccc(C(F)(F)F)c2)cc1 (centres undefined)
  19%	2%
- COc1ccccc1CNS(=O)(=O)c1cc2c3c(c1)CCN3C(=O)CC2
  1%	0%&-1%
- CC(C)(C)S(=O)(=O)/C(C#N)=C/c1sccc1C1OCCO1
  8%	8%
- Cc1nc2ccn(Cc3ccccc3)c(=O)c2cc1C(=O)N1CCN(c2ccc(F)cc2)CC1
  -5%	3%&7%
- O=C(Nc1ccc(Cl)c(Cl)c1)N(CCCN1CCOCC1)Cc1cccnc1
  -15%	3%

# Part of the list above in order of count of non-hydrogen atoms, largest number first.
# Order of results – N370S GC	TDP1 block
- CN(CC(=O)Nc1ccc(OC(F)(F)F)cc1)C(=O)Cn1c(=O)cnc2ccccc21
  .	-13%
- COCCCNC(=O)c1c(N)n(-c2ccccc2)c2nc3ccccc3nc12
  ?	-1%
- CC(C)(C)S(=O)(=O)/C(C#N)=C/c1sccc1C1OCCO1
  8%	8%

# Continuation:
# Order of results – N370S GC	TDP1 block
- CCc1nnc(NC(=O)c2sc3nc4cc(C)ccc4cc3c2N)s1
  3%	?
- COCCn1c(=S)[nH]c2cc(C(=O)N3CCN(c4cccc(Cl)c4)CC3)ccc2c1=O
  -3%	3%
- CC1CCN(CCCNC(=O)C2CC(=O)N(CCc3ccccc3)C2)CC1 (centres undefined)
  3%	1%
- COc1ccc2cc3cc(C(=O)N4CCN(c5ccccn5)CC4)oc3nc2c1
  3%	5%
- O=C(O)CCNC(=O)C12CC3CC(CC(C3)C1)C2
  -1%	2%
- O=c1[nH]cccc1-c1nc2ccccc2n1Cc1cccc(F)c1
  1%	.
- O=C(Nn1c(-c2ccc(Br)cc2)nc2ccccc2c1=O)c1ccc([N+](=O)[O-])cc1
  -3%	6%
- COc1ccc(NC(=O)CCS(=O)(=O)c2cccc3nonc23)c(OC)c1
  -2%	2%
- COc1cc(CCC(=O)NCC2CCCO2)cc(OC)c1OC (centres undefined)
  1%	1%
- COc1ccc(CCNC(=O)Cc2c(C)c3cc(OC)c(OC)cc3oc2=O)cc1
  .	-5%
- Cc1nn2c(N3CCCC3)c3c(nc2c1-c1ccccc1)CCC3
  1%	.
- COc1ccc(NC(=O)CSc2nnc(-c3ccc(C)cc3)o2)cc1
  .	4%
- CCCN1CNC(=S)N(CCc2ccccc2)C1
  2%	3%
- COc1ccc(N2C(N)=NC(N)=NC2(C)C)cc1
  -15%	6%
- CCN(C(=O)C1CSC2(C)CCC(=O)N12)c1nc2c(C)cccc2s1 (centres undefined)
  10%	-1%

# Order of results – N370S GC	TDP1 block
- CCOc1ccc(C(=O)NCc2ccco2)cc1OCC
  0%	.
- CCCCCSc1nnc(N)s1
  -15%	-1%
- O=C(Nc1c[nH]c(=O)[nH]c1=O)c1ccc([N+](=O)[O-])cc1
  9%	3%
- CCOc1ccccc1NC(=O)c1nnn(CC(=O)Nc2cc(C)cc(C)c2)c1N
  -10%	0%
- CC(=O)Nc1ccc(S(=O)(=O)N2CC(=O)NC(=O)C2)cc1
  -17%	3%
- CS(=O)(=O)N(CC(=O)N1CCOCC1)Cc1ccccc1
  -2%	6%
- COc1cc(NC(=O)CN2CCN(S(=O)(=O)c3ccc(C(C)C)cc3)CC2)cc(OC)c1
  11%	7%
- CCOc1ccccc1CN1CCN(C2CCSCC2)CC1CCO (centres undefined)
  -11%	4%
- COc1ccc(Br)cc1-c1noc(-c2ccncc2)n1
  1%	5%
- Cc1ccccc1Nc1nnc(SCC(=O)NCC2CCCO2)s1 (centres undefined)
  .	-1%
- CCOc1cc(N2CCOCC2)c(OCC)cc1NC(=O)c1cc(S(=O)(=O)N2CCOCC2)ccc1F
  .	4%
- Cc1cc(=O)n2nc(N3CCC(C(=O)NCc4cccnc4)CC3)sc2n1
  4%	2%
- CCOC(=O)C1(CCCc2ccccc2)CCN(C(=O)CCn2cncn2)CC1
  -6%	7%
- COC(=O)c1sc(NC(=O)c2ccncc2)nc1C
  0%	.
- O=C(CSc1nnnn1-c1ccc(Cl)cc1)N1CCc2ccccc2C1
  8%	2%

# The closing two compounds of the part above are carried over, then new ones follow.
# Order of results – N370S GC	TDP1 block
- COC(=O)c1sc(NC(=O)c2ccncc2)nc1C
  0%	.
- O=C(CSc1nnnn1-c1ccc(Cl)cc1)N1CCc2ccccc2C1
  8%	2%
- COc1ccc(Cl)cc1NC(=O)CCCC(=O)c1ccccc1
  2%	.
- CCCNC(=O)C(=O)Nc1ccc(N(C)C)cc1
  4%	0%
- COc1cccc(-c2c(C(=O)N/N=C/c3cccnc3)nnn2-c2nonc2N)c1
  -1%	7%
- O=C(O)c1ccc(CSc2nnnn2-c2ccc(F)cc2)cc1
  -7%	.
- COCCN(C(=O)COC(=O)CCC(=O)c1ccc(Cl)cc1)c1c(N)n(Cc2ccccc2)c(=O)[nH]c1=O
  4%	3%
- CCOc1ccc(OCC)c(NS(=O)(=O)c2cccc3nsnc23)c1
  4%	12%
- O=C(CNC(=O)c1cccc(F)c1)N/N=C/c1cccnc1
  -6%	-4%
- COc1ccc(NC(=O)CSc2nc(C)cc(C)n2)cc1
  -14%	8%
- CCc1cccc(NC(=O)CCCn2nc(C)c3c(C)n(-c4ccccc4)nc3c2=O)c1
  -13%	0%
- OCCOCCN1CCN(C(=S)Nc2ccccc2)CC1
  4%	5%
- O=c1[nH]c(Cc2ccccc2)nc2ccccc12
  7%	8%
- Cc1c(N2C(=O)/C(=C\c3ccccc3O)SC2=S)c(=O)n(-c2ccccc2)n1C
  -2%	-2%
- Cc1ccc(C2CC(=O)C=C(Nc3ccc(Cl)cc3)C2)cc1 (centres undefined)
  1%	2%
- C=CCn1c(-c2cnn(-c3ccccc3)c2N)n[nH]c1=S
  -1%	.
- CCOC(=O)c1nn(-c2ccc(C)cc2)c(C)c1C(C)=O
  -17%	0%

# Order of results – N370S GC	TDP1 block
- CCOC(=O)c1csc(NC(=O)c2ccc(S(=O)(=O)N(C)C)cc2)n1
  5%	0%
- CCOC(=O)CCCCC(=O)NC(CO)C(=O)NC (centres undefined)
  15%	6%
- Cc1c(S(=O)(=O)N2CCN(c3ccc(F)cc3)CC2)c(=O)n(C)c(=O)n1C
  -22%	2%
- COc1ccc2cc3cc(C(=O)N4CCCC(C)C4)oc3nc2c1 (centres undefined)
  2%	1%
- CCOc1ccc(C(=O)Nc2ccc(NC(=O)c3ccco3)c(Cl)c2)cc1Cl
  -13%	1%
- Cc1ccc(S(=O)(=O)N2CCC(C(=O)Nc3ccccc3N3CCCC3)CC2)cc1
  -5%	.
- Cc1ccc(OCC(=O)Nc2ccc(S(=O)(=O)Nc3cc(C)nc(C)n3)cc2)c(C)c1
  -4%	-7%
- C=CCOC(=O)C1=C(C)Nc2ncnn2C1c1cc(Br)ccc1F (centres undefined)
  5%	4%
- O=C(Nc1nc2ccccc2n1CCOc1ccccc1)c1ccco1
  9%	13%
- O=c1[nH]c(/C(=N\O)c2ccccc2)no1
  7%	2%
- COc1ccc(C2c3[nH]c4ccccc4c3C[C@H]3C(=O)N(CCCO)CC(=O)N23)c(OC)c1 (some centres undefined)
  -13%	.
- COC(=O)Cc1c(O)ccn(C2CC2)c1=O
  0%	3%
- Cn1c(=O)c2c(nc(CN3CCN(C(c4ccccc4)c4ccccc4)CC3)n2CC(N)=O)n(C)c1=O
  5%	5%
- COc1cc(CCC(=O)N2CCN(c3ccccc3)CC2)cc(OC)c1OC
  -5%	6%
- O=C(CSc1nc2ccccc2[nH]1)NCCc1ccc(Cl)cc1
  17%	0%

# Order of results – N370S GC	TDP1 block
- Cc1oc2c(CN3CCCC3)c(O)ccc2c(=O)c1-c1ccccc1
  8%	-3%
- CN(C)c1nc(C#N)nc(N2CCOCC2)n1
  7%	1%&0%
- O=C(N/N=C/C=C\c1ccccc1)c1cnccn1
  -5%	3%
- CCOc1ccc(N(C(=O)CNC(=O)c2ccco2)C(C(=O)NCC2CCCO2)c2ccccc2)cc1 (centres undefined)
  -7%	.
- OCCOCCn1c2ccccc2c2ccccc21
  -5%	-1%
- CS(=O)(=O)c1ccc(NC(=O)c2ccccc2-n2cnnn2)cc1
  .	1%
- CCOc1ccc(CNC(=O)C2CCN(C(=O)N3CC(C)Oc4ccccc43)CC2)cc1 (centres undefined)
  -5%	.
- CC(C)NC[C@H](O)COc1cccc2[nH]ccc12
  1%&-1%&1%&5%	9%[56.1 µM]
- O=[N+]([O-])c1cc(S(=O)(=O)Nc2ccccc2)ccc1NCc1cccnc1
  7%	5%
- CCOC(=O)c1c(C)c(C(=O)NCCCN2CCCC2=O)c(C)n1CC
  4%	-2%
- CCC(=O)NC(=S)Nc1ccc(S(=O)(=O)N2CCN(C)CC2)cc1
  4%	5%
- CCCCCC(=O)NCC(C)NC(=O)CCCCC (centres undefined)
  0%	-1%
- CCn1c(SCC(=O)Nc2ccc3c(c2)OCCO3)nnc1-c1cccnc1
  -8%	10%
- COc1ccc(S(=O)(=O)NC(C)C(=O)Nc2ccccc2C(F)(F)F)cc1 (centres undefined)
  -18%	1%
- COc1ccc(N2CCN(C(=O)c3ccccc3)CC2)c([N+](=O)[O-])c1
  -6%	.

# Order of results – N370S GC	TDP1 block
- CC(C)N1C(=O)C2(OCCCO2)c2cc(Br)ccc21
  -3%	.
- O=C(Cc1ccc(F)cc1)N1CCC(c2nc3c(nnn3Cc3ccc(F)cc3)c(=O)[nH]2)CC1
  .	5%
- COc1ccc(CN2CC(C(=O)NCCCN3CCOCC3)CC2=O)cc1 (centres undefined)
  5%	0%
- CC(C)(C)CN1CCNC(=O)C1CC(=O)NCCN1CCCc2ccccc21 (centres undefined)
  0%	.
- Cc1cc(C(=O)NC2CCCc3ccccc32)c(C)o1 (centres undefined)
  4%	2%
- Cc1ccccc1N(CC(=O)NCC1CCCO1)C(=O)C1(C)CC(=O)N=C2C=CC=CN21 (centres undefined)
  14%	-1%
- COc1ccc(NC(=O)Oc2cc(C)ccc2C(C)C)cc1
  -19%	-10%
- O=C1CS/C(=N\N=C\c2ccccc2Cl)N1CC1CC1
  2%	7%
- O=C(c1ccc2c(=O)n(-c3ccccc3)c(=S)[nH]c2c1)N1CCCCC1
  -2%	4%
- COC(=O)CCSCC(=O)Nc1cc(C)on1
  2%	0%
- O=C(CCCN1C(=O)/C(=C\c2ccco2)SC1=S)Nc1cccc2ccccc12
  5%	5%
- C=CCn1c(-c2sc3nc(C)cc(C)c3c2N)n[nH]c1=S
  2%	10%
- NS(=O)(=O)c1ccc(CCNC(=O)NC2CCCCC2)cc1
  3%	5%
- C/C(=N\NC(=O)c1ccccc1C)c1ccc(NC(=O)c2cccs2)cc1
  -8%	0%
- COC(=O)NCC(c1ccco1)N1CCN(c2ccccc2)CC1 (centres undefined)
  0%	7%
- O=C(NNC(=S)Nc1ccccc1Cl)C1CC1
  0%	3%

# Bioassay records (PubChem)
